# PKD1 kinase inh: inhibitors of human PKD1 kinase | Q15139 | PKD1 kinase fluorescence polarization assay | inhibition, %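 (about 10 µM by stock and volumes)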 | actives 0.056% (n = 200,000);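 active means inhibition of 50% or more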;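 further: controls were vehicle for no effect and a reference inhibitor for full effect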
# RGS16-Gao HTS: regulators of human RGS16-Galphao interaction. actives 0.38% (n = 220,000). O15492+P09471. bead-based flow cytometry RGS16-Galphao binding, fluorescence; actives lie on both sides. binding response (% of control), % at 10 µM;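 active means below 25% or above 175%, edge rows of some plates excepted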;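 further: Galphao activated by GDP with aluminum fluoride before binding; 100% = wells without compound and 0% = beads without RGS; some results beyond the cut were filed as inactive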
# Target sequence (O15492 whole entry, looked up): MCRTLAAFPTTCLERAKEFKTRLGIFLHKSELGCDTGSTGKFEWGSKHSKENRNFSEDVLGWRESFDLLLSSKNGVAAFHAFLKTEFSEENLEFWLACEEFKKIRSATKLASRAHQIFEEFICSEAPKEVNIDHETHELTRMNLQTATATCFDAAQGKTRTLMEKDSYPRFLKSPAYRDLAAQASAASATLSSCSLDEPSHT
# Target sequence (P09471 whole entry, looked up): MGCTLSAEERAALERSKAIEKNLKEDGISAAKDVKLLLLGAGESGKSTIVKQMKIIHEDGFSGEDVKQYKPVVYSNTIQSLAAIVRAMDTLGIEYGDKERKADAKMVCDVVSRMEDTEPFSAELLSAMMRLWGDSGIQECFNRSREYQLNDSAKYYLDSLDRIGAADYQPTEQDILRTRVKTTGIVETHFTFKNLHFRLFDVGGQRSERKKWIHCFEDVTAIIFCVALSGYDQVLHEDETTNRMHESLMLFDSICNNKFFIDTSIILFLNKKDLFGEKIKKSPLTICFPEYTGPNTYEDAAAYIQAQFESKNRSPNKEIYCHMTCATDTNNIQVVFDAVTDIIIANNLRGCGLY
# HSV augment: HSV replication enhancement | HSV replication augmentation in cells, fold increase | maximum fold increase | actives 0.005% (n = 220,000) | AID 1956;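 active means peak rise of 1.5-fold or more in the series; tested in PC3 cells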;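 further: first round at 10 µM; read as green reporter fluorescence; hits show the peak of a series up to 25 µM; 1 = signal of infected wells without compound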
# GALR2 ag: activates the human galanin receptor 2. AID 803. activation, %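 (tested at 5 µM)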. O43603. GALR2-expressing cells, agonist activation read-out. actives 0.48% (n = 140,000);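 active means above mean plus 3 SD of all compounds, about 5% in these data, not always enough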;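 further: 0% = vehicle buffer wells and 100% = reference agonist at full effect; tested in CHO reporter cells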
# Target sequence (O43603 whole entry, looked up): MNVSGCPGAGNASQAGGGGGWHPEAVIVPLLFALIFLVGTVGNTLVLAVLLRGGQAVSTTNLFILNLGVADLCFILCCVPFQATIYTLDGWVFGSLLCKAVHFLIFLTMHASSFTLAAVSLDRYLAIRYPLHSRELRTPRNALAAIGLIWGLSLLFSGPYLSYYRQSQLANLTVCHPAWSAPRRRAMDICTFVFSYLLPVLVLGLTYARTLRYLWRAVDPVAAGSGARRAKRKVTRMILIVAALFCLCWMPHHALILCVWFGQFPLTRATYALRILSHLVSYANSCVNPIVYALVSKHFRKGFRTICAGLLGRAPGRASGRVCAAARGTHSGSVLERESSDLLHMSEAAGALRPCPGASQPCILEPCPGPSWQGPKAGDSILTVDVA
# INS promoter inh: TRM-6 insulin promoter activity inhibition; TRM-6 cells (human fetal islet line), insulin promoter-eGFP reporter, imaging; reporter expression induced with tamoxifen; inhibition, % at 2 µM; actives 0.9% (n = 130,000); AID 1273;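 active means inhibition above the mean plus 3 SD, with well images judged a real hit on visual review, cut at about 60% in these data, passing the limit was not always enough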
# INS promoter inh cell count: second read-out of INS promoter inh, no call of its own (marks repeat the call); normalized cell count, %; measured here: cell count, toxicity; reference of the scale not given here;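 cells exposed to compound for 48 h; stained nuclei by imaging scaled within each plate; lower means fewer cells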
# HSV augment primary fold: recorded beside HSV augment, whose call it bears; fold increase; compound at 10 µM; measured here: primary screen fold increase 10 uM; tested in PC3 cells;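 GFP signal in the first replicate; 1 = infected wells without compound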
# * marks the source's active call; other numbers are inactive results; i = inactive; · = no result given.
# A first look, 3 compounds:
entry	Molecule	PKD1 kinase inh	RGS16-Gao HTS	HSV augment	HSV augment primary fold
1	CC(=O)Nc1sc(N/N=C/c2ccccc2)nc1-c1ccc(C)cc1	·	103.7	i	1.19
2	COc1cccc(NC(=O)CSc2nc(N)cc(N)n2)c1	-1.6	103.8	i	0.94
3	CC(C)CN(CC(C)C)S(=O)(=O)N1CCC(C(=O)NCc2ccccn2)CC1	-2.8	100.0	i	0.84

entry	GALR2 ag	INS promoter inh	INS promoter inh cell count
1	·	·	·
2	0.1	55.3	63.2
3	-0.9	-6.2	45.1

# The list itself, repeating the preview:
entry	Molecule	PKD1 kinase inh	RGS16-Gao HTS	HSV augment	HSV augment primary fold
1	CC(=O)Nc1sc(N/N=C/c2ccccc2)nc1-c1ccc(C)cc1	·	103.7	i	1.19
2	COc1cccc(NC(=O)CSc2nc(N)cc(N)n2)c1	-1.6	103.8	i	0.94
3	CC(C)CN(CC(C)C)S(=O)(=O)N1CCC(C(=O)NCc2ccccn2)CC1	-2.8	100.0	i	0.84
4	O=C(NNC1=NCCCCC1)Nc1cccc(Cl)c1	-1.3	99.9	i	0.92
5	Cc1ccccc1NC(=O)CCC(=O)OCCCC(F)(F)C(F)(F)F	-19.5	101.2	i	0.86
6	CCOC(=O)c1c(NC(=O)C2CCCN(S(=O)(=O)c3ccc(C)cc3)C2)sc2c1CCCC2 (stereo not given)	-1.2	100.7	i	1.1
7	CC1(C)CC(=O)C(C=NCCN2CCNC2=O)=C(O)C1	-9.8	102.5	i	0.95
8	O=C1COc2ccc(C(=O)COC(=O)COc3ccccc3[N+](=O)[O-])cc2N1	·	103.0	i	0.99

entry	GALR2 ag	INS promoter inh	INS promoter inh cell count
1	·	·	·
2	0.1	55.3	63.2
3	-0.9	-6.2	45.1
4	·	·	·
5	-1.6	·	·
6	0.9	-71.0	80.8
7	-1.5	0.0	119.4
8	·	·	·

# Additional entries follow.
entry	Molecule	PKD1 kinase inh	RGS16-Gao HTS	HSV augment	HSV augment primary fold
9	Cn1c(=NC(=O)C2CCN(S(=O)(=O)c3cccs3)CC2)sc2ccccc21	-2.0	102.5	i	0.93
10	COc1c(NC(C)=O)c2ccccc2c2ccccc12	·	92.6	i	1.19
11	C=CCn1c(N)cc(=O)nc1SCC(=O)Nc1ccccc1C(N)=O	-1.1	103.6	i	1.02
12	CC(C)(C)NC(=O)/C=N/O	-2.1	94.9	i	0.94
13	COc1ccc(/C=C2\CCc3ccccc3C2=O)c(OC)c1OC	-6.0	90.7	i	0.96
14	OC(c1ccc(Cl)cc1Cl)C(Cc1cccnc1)n1cncn1 (stereo not given)	11.4	102.2	i	0.86
15	O=C(Nc1cccnc1Cl)c1ccc(Cl)c([N+](=O)[O-])c1	-1.1	102.5	i	1
16	CCOC(=O)c1ccc(COC(=O)CCc2nc(-c3ccccc3)c(-c3ccccc3)o2)cc1	-11.4	87.9	i	0.92

entry	GALR2 ag	INS promoter inh	INS promoter inh cell count
9	0.0	14.3	179.0
10	·	·	·
11	·	·	·
12	-0.2	·	·
13	·	26.7	123.3
14	-4.1	0.0	106.9
15	-1.3	-68.8	56.3
16	-0.7	-10.7	124.3

# Continued:
entry	Molecule	PKD1 kinase inh	RGS16-Gao HTS	HSV augment	HSV augment primary fold
17	CN(C)C(CNC(=O)c1oc2ccccc2c1CSc1ncn[nH]1)c1ccco1 (stereo not given)	-1.2	103.8	i	1.07
18	Cc1ccc(NC(=S)N(CCN2CCOCC2)Cc2ccccc2F)cc1	-3.4	147.4	i	0.93
19	O=C1c2ccc3c4c(ccc(c24)C(=O)N1c1cccc(O)c1)C(=O)N(c1cccc(O)c1)C3=O	·	102.1	i	0.71
20	COc1ccc(S(=O)(=O)NCc2ccco2)c2ccccc12	-12.4	98.5	i	0.93
21	O=C(NCc1ccco1)C(=O)NCC1OCCN1S(=O)(=O)c1ccc(Br)cc1 (stereo not given)	1.0	105.2	·	·
22	CCOC(=O)C1CCCN(Cc2ccc(O)c(OC)c2)C1 (stereo not given)	2.0	109.4	i	0.88
23	CCN1CCCc2cc(CN(CCN3CCOCC3)C(=S)Nc3cccc(OC)c3)ccc21	-3.6	99.0	i	0.98
24	COc1cccc(/C=C/C(=O)N2CCN(S(=O)(=O)c3ccccc3)CC2)c1OC	·	103.0	i	1.01

entry	GALR2 ag	INS promoter inh	INS promoter inh cell count
17	·	·	·
18	·	-166.7	38.3
19	·	·	·
20	-0.2	-28.1	101.4
21	·	-46.1	94.1
22	-2.1	35.7	98.0
23	·	·	·
24	·	·	·

# Carrying on:
entry	Molecule	PKD1 kinase inh	RGS16-Gao HTS	HSV augment	HSV augment primary fold
25	Nc1ccc(C(=O)OCc2nc3cc4ccccc4cc3[nH]2)cc1	-0.5	100.6	i	0.8
26	O=C(Cn1cnc2c(nnn2Cc2ccc(F)cc2)c1=O)NC1CCCC1	6.0	94.7	i	1.17
27	Cc1cc(N/N=C/c2cccc(Cl)c2)nc(-n2nc(C)cc2C)n1	·	96.8	i	0.78
28	Cc1cc(NC(=O)COC(=O)c2cccc(OCc3ccccc3)c2)no1	-8.1	68.9	i	0.86
29	Cc1ccc(C(=O)NCCSCc2ccc(Cl)cc2Cl)cc1[N+](=O)[O-]	2.6	99.9	i	0.95
30	Cc1cc(C)c(OCC(=O)Nc2nc3ccccc3[nH]2)c(C)c1	-4.5	106.7	i	0.98
31	O=C(O)C1=C[C@H](c2coc3ccccc3c2=O)C[C@H](OCc2ccc(CO)cc2)O1	-1.0	99.4	i	0.95
32	Cc1cccc(OCC(=O)Nc2ccc3c4c(cccc24)CC3)c1C	-2.7	104.5	i	0.95

entry	GALR2 ag	INS promoter inh	INS promoter inh cell count
25	·	·	·
26	-2.8	·	·
27	·	·	·
28	-0.9	-11.4	176.0
29	4.0	0.0	70.5
30	·	-18.2	145.1
31	·	·	·
32	4.0	-16.7	122.4

# Next structures:
entry	Molecule	PKD1 kinase inh	RGS16-Gao HTS	HSV augment	HSV augment primary fold
33	NS(=O)(=O)c1ccc(CCNC(=O)CSCc2ccccc2)cc1	-6.3	105.0	i	1.02
34	Cn1c(SCC(=O)Nc2ccc3nc(SCC(=O)NC4CC4)sc3c2)nnc1-c1ccccc1	-5.0	101.9	i	0.93
35	CC(c1ccccc1F)n1cc(C(=O)NCc2ccncc2)nn1 (stereo not given)	2.0	102.7	i	1.01
36	CC1=NN(c2ccc(C(=O)O)c(N)c2)C(=O)C1	3.2	95.2	i	1
37	O=C(CSc1ccc2ccccc2n1)Nc1ccc(N2CCOCC2)cc1	3.1	98.5	i	0.95
38	Cc1ccc([N+](=O)[O-])cc1NC(=S)NC(=O)c1cccs1	9.7	105.8	i	0.97
39	COc1ccc(N2C(=O)CC(Nc3ccc(N4CCOCC4)cc3)C2=O)c(OC)c1 (stereo not given)	-2.7	96.2	i	1.03
40	COc1cc2c(cc1OC)C(c1ccc(C)o1)CC(=O)N2 (stereo not given)	-3.9	101.8	i	0.94

entry	GALR2 ag	INS promoter inh	INS promoter inh cell count
33	·	·	·
34	-0.6	·	·
35	-0.1	22.2	126.8
36	·	25.0	142.3
37	·	·	·
38	-1.9	-34.4	116.8
39	-3.0	42.9	80.8
40	-1.7	14.3	70.5

# New compounds follow.
entry	Molecule	PKD1 kinase inh	RGS16-Gao HTS	HSV augment	HSV augment primary fold
41	O=c1[nH]c(NC2CCCCC2)nnc1Cc1ccccc1	-5.6	103.9	i	0.98
42	Cc1cc2c(c(=O)o1)C(c1cccs1)C(C#N)=C(N)O2 (stereo not given)	-7.7	111.0	i	0.98
43	CC(C)CNC(=O)COC(=O)c1ccc(Cl)c(S(N)(=O)=O)c1	-6.9	97.2	·	·
44	O=C(CSc1cccs1)Nc1cccc2ccccc12	-4.3	106.4	i	1.04
45	CCOC(=O)c1ccc(N/C=C/C(=O)c2ccco2)cc1	1.1	104.4	i	0.99
46	O=C(CCC(=O)c1ccccc1)NCCOc1ccccc1	-3.3	99.9	i	1.07
47	O=C(Nc1cc(Cl)ccc1Cl)c1ccc(-c2ccccc2)cc1	-4.3	110.8	i	0.93
48	Cc1c(CCOC(=O)CC23CC4CC(CC(C4)C2)C3)sc[n+]1CC(=O)c1ccccc1	1.8	107.8	i	0.85

entry	GALR2 ag	INS promoter inh	INS promoter inh cell count
41	-1.1	28.6	127.7
42	-1.9	-29.6	91.6
43	-2.4	21.4	74.5
44	-0.2	2.7	100.0
45	0.5	-3.2	153.7
46	·	·	·
47	-1.6	53.9	68.9
48	·	·	·

# Remaining list, next part.
entry	Molecule	PKD1 kinase inh	RGS16-Gao HTS	HSV augment	HSV augment primary fold
49	CCCCc1ccc(N2C(=O)[C@@H]3C(CC(N)=O)NC4(C(=O)Nc5ccc(F)cc54)[C@@H]3C2=O)cc1 (stereo not given in full)	2.3	98.6	i	0.86
50	NNC(=O)c1nn(-c2ccc(Cl)cc2)cc1O	·	95.6	i	1.1
51	COc1ccc(NC(=O)Cn2c(C(C)C)nc(C)cc2=O)cc1Cl	6.1	91.0	i	0.94
52	CN1CCN(/C=N/C2=C(C#N)C(c3ccccc3)C3=C(CC(C)(C)CC3=O)O2)CC1 (stereo not given)	-7.0	103.1	i	0.93
53	CC1(C)CC(=O)C2=C(C1)N(CCN1CCOCC1)C1=C(C(=O)CC(C)(C)C1)C2c1cccc(F)c1	-1.1	93.0	i	1.03
54	Cc1ccc2c(C)c(C(=O)Nc3nnc(C)s3)oc2c1	-11.9	114.3	i	1.08
55	Cc1cc(NC(=O)CSc2nnc(-c3ccncc3)n2Cc2ccccc2)n(-c2ccccc2)n1	·	99.0	i	0.98
56	COc1ccccc1-n1c(CNC(=O)c2ccc(S(=O)(=O)N3CCOCC3)cc2)n[nH]c1=S	0.0	94.2	i	1.11

entry	GALR2 ag	INS promoter inh	INS promoter inh cell count
49	-1.6	-9.4	145.1
50	·	·	·
51	·	·	·
52	-2.1	40.0	80.6
53	7.0	·	·
54	-0.2	·	·
55	·	·	·
56	-0.8	0.0	111.0

# A few values from above:
# In INS promoter inh cell count, `COc1ccc(S(=O)(=O)NCc2ccco2)c2ccccc12` is listed with 101.4
# In GALR2 ag, `CCOC(=O)c1c(NC(=O)C2CCCN(S(=O)(=O)c3ccc(C)cc3)C2)sc2c1CCCC2` (stereo not given) is listed with 0.9
# In PKD1 kinase inh, `CC1(C)CC(=O)C2=C(C1)N(CCN1CCOCC1)C1=C(C(=O)CC(C)(C)C1)C2c1cccc(F)c1` is listed with -1.1
# In RGS16-Gao HTS, `O=C(Nc1cccnc1Cl)c1ccc(Cl)c([N+](=O)[O-])c1` is listed with 102.5

# (cont.)
entry	Molecule	PKD1 kinase inh	RGS16-Gao HTS	HSV augment	HSV augment primary fold
57	CCc1ccc(OCC(=O)N(CC)CC)cc1	2.7	99.5	i	1.01
58	CC(=O)Oc1ccc2c(=O)c(Oc3ccccc3)c(C)oc2c1OC(C)=O	-3.1	-3.1	i	0.98
59	O=C(CCCSc1nc2sc3c(c2c(=O)[nH]1)CCC3)NCCO	-3.5	72.0	i	0.91
60	COc1ccc2cc3c(N)nn(C(=O)c4cccc([N+](=O)[O-])c4)c3nc2c1	-2.6	99.7	i	0.81
61	FC(F)Oc1ccc(NC(=S)NCc2ccco2)cc1Cl	3.9	91.4	i	1.01
62	CCN(C(=O)COC(=O)c1ccc(OCc2c(C)noc2C)cc1)c1ccccc1	2.9	103.2	i	0.96
63	C1=C(c2ccccc2)CCN(c2ncnc3nc[nH]c23)C1	5.0	100.2	i	0.87
64	O=C1C2C3C=CC(CC3)C2C(=O)N1/N=C/c1c(O)ccc2ccccc12 (stereo not given)	-7.5	107.2	i	0.98

entry	GALR2 ag	INS promoter inh	INS promoter inh cell count
57	·	·	·
58	-0.1	16.7	85.7
59	-2.3	51.6	113.6
60	8.0*	66.7	125.8
61	·	·	·
62	-1.9	-14.3	116.8
63	-1.4	·	·
64	·	·	·

# New compounds follow.
entry	Molecule	PKD1 kinase inh	RGS16-Gao HTS	HSV augment	HSV augment primary fold
65	Cc1cc(-c2nnc(CCC(=O)NC(c3ccccc3)c3ccccc3)o2)no1	-0.3	108.9	i	1.13
66	O=[N+]([O-])c1ccc(CSc2nnc(Cc3ccccc3)n2-c2ccc(F)cc2)cc1	-4.9	107.0	i	0.99
67	Cc1csc2c(SCC(=O)NNS(=O)(=O)c3cccc(C(F)(F)F)c3)ncnc12	·	97.3	i	1.12
68	Cc1ccc(OCCn2c(=O)n(C)c3ccccc32)cc1	-4.2	98.1	i	0.86
69	CCCS(=O)(=O)N1CCN(S(=O)(=O)c2ccccc2)CC1	1.8	98.1	i	0.86
70	CN1Cc2cc(C(=O)c3cc(Cl)cc(CSc4ncccn4)c3O)cnc2NC1=O	8.1	110.2	i	0.63

entry	GALR2 ag	INS promoter inh	INS promoter inh cell count
65	·	·	·
66	-1.1	·	·
67	·	·	·
68	·	22.2	19.8
69	0.2	-17.2	72.1
70	3.0	·	·

# Screening data: PubChem, several laboratories
